Assay outcomes deposited in PubChem by National Center for Advancing Translational Sciences (NCATS).
gsp ag: qHTS for Agonist of gsp, the Etiologic Mutation Responsible for Fibrous Dysplasia/McCune-Albright Syndrome: qHTS; Potency, µM (top dose mostly 76.9 µM), without a hit: at the top dose activation (cAMP increase), hits mostly activators; gsp mutant cells, cAMP HTRF, 30 min; control for the full effect not named in the record; 0.13% of 340,000 active; active = well fitted activation curve with a large enough effect; inconclusive = small, poorly fitted or top-dose-only effect, or another doubt; inactive = no such curve, though single readings can be large or run the other way; cell line not stated here;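 note: phosphodiesterase inhibitor Ro 20-1724 added with compounds to block cAMP breakdown; potency is the fitted concentration of half-maximal effect; nearly all actives have a fitted effect of over 60% in size; about a fifth of the inactives were tested at one dose only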
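Cells in DMEM/10% FBS with G418 were pretreated with compounds in DMSO plus […] (300 uM stock) for 30 min at 37C. cAMP was measured by HTRF (cAMP-d2 plus anti-cAMP antibody-K) after 30 min at room temperature.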
TRPML1 blocker: qHTS for Inhibitors of the Human Mucolipin Transient Receptor Potential 1 (TRPML1); activity change, negative = inhibition, % (no concentration beside the values); TRPML1-inducible cells, Ca2+ dye fluorescence, FDSS; stronger effect = lower value; inhibition of EC80 agonist-evoked calcium signal; Mucolipin-1 (Homo sapiens), Q9GZU1; 0.02% of 390,000 active; in the data active means activity change below about -50%; inconclusive means about -30% to -50%; inactive means above about -30%;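 note: stimulus is agonist 54-4 at its EC80 concentration; % is set by controls: 0 for no effect and ±100 for the full control effect; compound concentration not given in the record; the text of the record puts the active cut at -80%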
Target sequence (Q9GZU1 whole entry, looked up): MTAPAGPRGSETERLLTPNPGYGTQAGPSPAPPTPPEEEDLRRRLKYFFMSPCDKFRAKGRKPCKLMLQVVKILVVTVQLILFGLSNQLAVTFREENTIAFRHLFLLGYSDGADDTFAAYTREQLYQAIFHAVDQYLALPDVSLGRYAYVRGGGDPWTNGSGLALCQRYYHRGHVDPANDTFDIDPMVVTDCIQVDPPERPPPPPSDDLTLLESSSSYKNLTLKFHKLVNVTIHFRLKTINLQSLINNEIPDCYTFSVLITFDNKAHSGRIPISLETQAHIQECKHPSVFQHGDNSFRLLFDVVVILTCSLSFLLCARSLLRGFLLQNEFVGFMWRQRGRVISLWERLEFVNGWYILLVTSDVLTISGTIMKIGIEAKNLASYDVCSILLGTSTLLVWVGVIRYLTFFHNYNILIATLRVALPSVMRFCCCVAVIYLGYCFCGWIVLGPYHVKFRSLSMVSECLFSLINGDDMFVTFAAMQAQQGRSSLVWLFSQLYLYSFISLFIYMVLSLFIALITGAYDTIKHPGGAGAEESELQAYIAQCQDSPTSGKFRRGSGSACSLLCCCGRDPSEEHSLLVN
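Tet-induced TRPML1-DL cells loaded with Ca8 no-wash calcium dye were read kinetically on FDSS. Compound addition was followed by EC80 agonist 54-4 (4 uM final); inhibition was read over 110 s.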
ClpP mod: qHTS Assay for Activators of ClpP; ATP-dependent Clp protease proteolytic subunit (Bacillus subtilis (strain 168)), P80244; purified B. subtilis ClpP, FRET peptide cleavage, 20 min; Potency, µM (highest dose often 57.5 µM), for inactives: top-dose activity change, negative = active; 1.9% of 340,000 active; active = well fitted falling curve with a large enough effect; inconclusive = small, poorly fitted or top-dose-only effect; inactive = no such curve, though single readings can be large or run the other way; note: potency is the fitted concentration of half-maximal effect; the source files actives as falling curves though it sought activators and does not explain the sign; nearly all actives have a fitted effect of over 65% in size; many hits overshoot -100%
Target sequence (P80244 whole entry, looked up): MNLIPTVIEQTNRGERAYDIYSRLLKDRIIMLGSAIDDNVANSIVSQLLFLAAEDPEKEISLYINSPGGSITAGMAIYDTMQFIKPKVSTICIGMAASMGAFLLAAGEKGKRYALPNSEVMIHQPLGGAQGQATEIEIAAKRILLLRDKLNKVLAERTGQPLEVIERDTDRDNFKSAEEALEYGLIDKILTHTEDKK
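ClpP 10 microg/mL final, pH 8 Tris/KCl buffer with BSA, glycerol, Tween-20; compound pinned in; FRET-FV substrate; RT 20 min; Ex320/Em430; ΔFRET vs ADEP 5.8 microM, DMSO, no enzyme.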
Sfp inh: qHTS Assay for Inhibitors of Bacillus subtilis Sfp phosphopantetheinyl transferase (PPTase); Potency, µM, without a hit: max response, negative = inhibition, actives largely listed as inhibitors; 4'-phosphopantetheinyl transferase ffp (Bacillus subtilis), Q9F4F7; 3.5% of 310,000 active; Biochemical Sfp PPTase activity, qHTS; AID 1490, 2009; active = well fitted inhibition curve with a large enough effect; inconclusive = small, poorly fitted or top-dose-only effect, or another doubt; inactive = no such curve, though single readings can be large or run the other way;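 note: the enzyme is Sfp with the accession as filed and its product quenches rhodamine fluorescence; potency is the fitted concentration of half-maximal effect; 0% = enzyme reaction without inhibitor and -100% = no enzyme wells; top concentration of the series not given in the record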
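Buffer: 50 mM Hepes-Na pH 7.6, 10 mM MgCl2, 0.01% Nonidet P-40, 0.01% BSA. Enzyme 15 nM, pre-exposed to compound 15 min; substrates then added and fluorescence change tracked over 30 min.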
Menin MLL FP FL: qHTS Assay for Inhibitors Targeting the Menin-MLL Interaction in MLL Related Leukemias: Competition With Fluorescein Labeled MLL-derived Peptide. Fluorescence polarization, fluorescein-MLL peptide displacement from menin. FP activity change, % at 61.4 µM. 290,000 tested, under 10 active; inconclusive = falling polarisation curve, or a change in total fluorescence; inactive = total fluorescence flat and polarisation flat or rising; no compound was filed as active; the % refers to the polarisation; negative = inhibition;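 note: % of control where 0% means no effect; inhibitors lower the polarisation; unlabelled MLL peptide was the positive control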
gsp antag: qHTS for Antagonists of gsp, the Etiologic Mutation Responsible for Fibrous Dysplasia/McCune-Albright Syndrome: qHTS; Potency, µM (highest dose often 76.9 µM), without a hit: at the top dose activity change, negative = inhibition, hits mostly inhibitors; 0.4% of 340,000 active; gsp-mutant cells, cAMP HTRF, 30 min; control for the full effect not named in the record; active = falling curve of any shape with a large fitted effect; inconclusive = falling curve, mostly with a smaller effect; inactive = flat or rising curve; cell line not stated here;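 note: intracellular cAMP measured with PDE inhibitor Ro 20-1724 present during compound exposure; potency is the fitted concentration of half-maximal effect; % is set by controls: 0 for no effect and ±100 for the full control effect; nearly all actives have a fitted effect of over 65% in size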
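Cells in G418 medium, seeded 16-24 h, 37C; buffer exchange to DPBS + 1 mM CaCl2, 0.5 mM MgCl2, 0.05% BSA; cpds in DMSO + […] (300 uM stock), 30 min 37C; HTRF cAMP detection.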
TRPV1 PAM: HTS Assay for Compounds that Act as Potentiators of the Vanilloid Receptor 1; Transient receptor potential cation channel subfamily V member 1 (Homo sapiens), Q8NER1; TRPV1-expressing cells, Fluo-8 calcium influx, capsaicin EC20 potentiation; host cell line not named in the record; control for the full effect not named in the record; potentiation, % at 8.33 µM; 0.02% of 320,000 active; AID 540277, 2011; active means potentiation above 80%; inconclusive means 30% to 80%; inactive means below 30%; note: 0% is about no effect
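Fluo-8 calcium influx in TRPV1-expressing cells, kinetic read (ex 480/em 520 nm). Compound added and read 3 min for agonist activity, followed by capsaicin at EC20 final and 2 min further read for enhancement.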
Active calls of the source: *; ? = inconclusive; / = not tested or not shown; & = joins results of further samples; [ ] = another dose, or the depositor's remark.

SMILES	gsp ag	TRPML1 blocker	ClpP mod	Sfp inh	Menin MLL FP FL	gsp antag	TRPV1 PAM
Cc1cccc(OCc2nnc(NC(=O)Cc3cccs3)s2)c1	-11.2%	-1.0	1.8%	6.4%	0.2	7.1%	13.9
COc1cccc(NC(=S)N(CCc2c(C)[nH]c3ccccc23)Cc2cccs2)c1	-57.8%[inhibitor]	7.2	1.9%	3.4%	-4.3	-6.4%	3.1
Cc1cc2n(n1)C(c1ccccc1Cl)Nc1ccccc1-2 (stereo not drawn)	?	4.8	?	-16.2%	5.0	-24.4%	-18.6
Cc1cccc(NCC(=O)N/N=C/c2ccc(Br)cc2)c1	-10.1%[15.4 µM]	8.7	-2.1%	2.7%	0.2	-5.5%	-5.0
COc1ccc(NC(=O)CSc2nnc(-c3cccc(O)c3)o2)cc1	7.0%	-5.9	/	-16.6%	0.4	-11.0%	4.1
CCC1(C)NC(C(=O)O)Cc2c1[nH]c1ccccc21 (stereo not drawn)	?	-1.4	-7.5%	-12.8%	0.1	6.9%	-0.4
CC(C)Cn1c2c(c(=O)[nH]c1=O)C(NS(=O)(=O)c1ccc(Cl)cc1)(C(F)(F)F)C(=O)N2 (stereo not drawn)	26.1%	2.5	-5.9%	-27.1%	2.6	10.1%	-6.3
COc1ccc(N/C(=C/[N+](=O)[O-])SC)cc1	0.0%[15.4 µM]	-21.7	/	11.1%	-3.1	4.0%	4.2
CCOCCCN(C(=O)CNC(=O)c1ccco1)C(C(=O)NC1CCCC1)c1ccccc1C (stereo not drawn)	-2.1%	-2.5	-0.8%	-8.2%	0.3	2.9%	-3.3
CN(CC(=O)Nc1ccccc1Br)C(=O)c1ccccc1-c1nc2ccccc2s1	-4.6%	-13.2	28.2µM*	-1.7%	/	-17.9%	-23.5
Cc1cccc(Cn2cc(/C=C(/C#N)C(=O)Nc3cccc(Cl)c3)c3ccccc32)c1	/	12.9	1.7%	/	/	/	?
Nc1scc2c(C(=O)N/N=C/c3ccc(Cl)cc3)nn(-c3ccccc3)c(=O)c12	-32.8%[inhibitor]	8.0	1.8%	14.1µM*	5.8	-0.5%	-6.6
CC(C)CCN1CCN(Cc2cccc(-n3cccn3)c2)CC1CCO (stereo not drawn)	3.4%	0.8	2.0%	15.1%	0.4	7.8%	0.2
CCOc1ccc(C=NNc2ccc(S(=O)(=O)Nc3ccccc3C(=O)O)cc2[N+](=O)[O-])cc1OC	3.2%[15.4 µM]	25.2	0.9%	/	/	-20.5%	/
Cc1ccc(C)c(NC(=O)CSc2nnc(-c3ccncc3)o2)c1	10.0%[15.4 µM]	16.5	/	1.0%	4.9	10.9%	-3.6
CS(=O)(=O)N(CC(=O)NC1CC2CCC1C2)c1cccc(C(F)(F)F)c1 (stereo not drawn)	4.0%	-5.9	2.3%	16.7%	-3.0	6.6%	-12.8
CN1CCN(c2nc(-c3ccc(Cl)cc3Cl)nc3ccccc23)CC1	?	7.0	0.3%	6.9%	5.2	9.1%	-8.6
CCC(C)SCc1nc2ccccc2[nH]1 (stereo not drawn)	?	13.6	-0.6%	19.0%	-0.9	2.5%	2.7
COc1ccccc1CNC(=O)COC(=O)c1cc(=O)[nH]c2ccccc12	21.7%	-7.3	-1.4%	/	/	-1.2%	-1.2
N=c1oc2ccccc2cc1C(=O)N/N=C/c1ccccc1	4.6%	0.8	-1.2%	4.7%	12.5	4.6%	-8.6
CN(C)S(=O)(=O)c1ccc(Oc2ccc(S(=O)(=O)N(C)C)cc2)cc1	-8.9%	11.8	0.3%	15.8%	4.9	-26.3%	-2.9
COc1ccc(/C=C2/SC(=O)N(CCC(=O)Nc3ccc(S(=O)(=O)Nc4nccs4)cc3)C2=O)cc1	-13.9%	11.4	-1.0%	-20.1%	4.9	-0.9%	-10.0
O=C(NC(=S)N1CCN(Cc2ccccc2)CC1)c1ccco1	-13.0%	2.3	/	-7.5%	-6.3	5.2%	12.0
CCOC(=O)Nc1cccc(OCC(=O)Nc2ccccc2OC)c1	-60.9%[inhibitor]	14.2	0.0%	5.2%	0.0	-27.1%	24.1
O=C(CCc1ccccc1)NCCC1=CCCCC1	-6.8%	-2.7	-1.9%	6.7%	0.1	-15.2%	-16.9
New compounds follow:
SMILES	gsp ag	TRPML1 blocker	ClpP mod	Sfp inh	Menin MLL FP FL	gsp antag	TRPV1 PAM
CCOc1ccc(NCc2cc3c(C(C)(C)C)nn(-c4ccccc4)c3[nH]c2=O)cc1	-17.4%	-8.8	-1.7%	27.3%	3.9	-2.8%	?
Cc1ccc(NC(=O)NNC(=O)C2CC(c3cccs3)=NO2)cc1 (stereo not drawn)	-32.9%[inhibitor]	-13.6	-1.7%	10.8%	-3.7	3.3%	4.5
CCCCc1nnc(NC(=O)C2CC(=O)N(c3ccc(C)cc3)C2)s1 (stereo not drawn)	28.8%	3.1	/	8.6%	-0.2	-5.2%	-2.3
COc1cc(/C=C/C(=O)Nc2ccc3[nH]c(=O)[nH]c3c2)cc(OC)c1OC	9.4%[15.4 µM]	-5.4	-6.5%	?	-3.3	-4.0%	-0.8
CCOC(=O)N1CCN(C(=O)CS(=O)(=O)Cc2nc(-c3ccccc3F)oc2C)CC1	2.1%	-2.6	-5.1%	14.5%	-5.6	6.2%	-6.2
COc1ccc(S(=O)(=O)NCc2ccccn2)cc1NC(=O)c1ccccc1C	-9.6%[15.4 µM]	9.5	-2.4%	/	/	-1.3%	-13.7
CCCN(C(=O)C1CCCN(c2ncnc3c2nc2n3CCCCC2)C1)c1ccc(F)cc1 (stereo not drawn)	13.3%	4.2	-3.1%	3.9%	/	-20.1%	-2.7
Cc1ccccc1C(=O)NNC(=O)CSc1nnc(-c2ccncc2)n1-c1ccccc1	-22.0%	-4.2	-2.8%	21.9%	2.3	-8.4%	5.9
CCn1nc(C)c(CN2CCCC(CO)(Cc3ccccc3)C2)c1C (stereo not drawn)	-9.5%[15.4 µM]	-8.9	/	15.5%	0.0	-5.9%	1.4
Cc1sc(NC(=O)/C=C/c2ccco2)c(C(=O)O)c1C	8.1%[15.4 µM]	-14.1	/	-21.9%	6.1	-28.6%	5.7
O=C(NC1CCN(Cc2ccc(F)cc2)CC1)c1ccccc1	18.7%[15.4 µM]	-21.2	-2.6%	-5.2%	-1.2	5.9%	-0.5
Cc1nc(SCc2ccc(C(=O)O)cc2)nc2c1CCCC2	10.0%	-14.3	/	-4.5%	6.8	?	-7.0
COc1ccc(-n2nc3c(N4CCC(C(=O)N5CCC(C)CC5)CC4)nnc(C)c3c2C)cc1	-23.4%	-1.0&18.2	?	-3.2%	/	9.5%	-14.4
CCN1CCN(c2ccc(S(=O)(=O)N3CCOCC3)cc2NC(=O)/C=C/c2ccc(C)cc2)CC1	-1.2%	-1.2	-0.7%	/	/	-2.0%	8.4
COc1ccccc1C(=O)NCCC(=O)NC1CCCC(C)C1C (stereo not drawn)	3.8%[15.4 µM]	-13.9	-1.7%	/	/	7.9%	1.4
NS(=O)(=O)c1ccc(CCNC(=O)CSc2nc3ccccc3c(=O)n2CC2CCCO2)cc1 (stereo not drawn)	1.5%	-13.3	-1.4%	12.3%	/	0.8%	7.0
CN(Cc1c(F)cccc1Cl)C(=O)CNC(=O)c1sc2ccccc2c1Cl	-4.3%[15.4 µM]	4.8	-12.3%	/	/	-25.7%	-5.0
Cc1c(Cc2ccccc2)c(=O)oc2cc(OCC(N)=O)ccc12	?	7.4	/	14.6%	-2.6	-6.5%	-23.2
Cc1nnsc1C(=O)NC1CCCc2c1cnn2-c1ccccc1F (stereo not drawn)	-74.8%[inhibitor]	26.9	-15.4%	20.2%	/	-7.4%	-17.2
C(#Cc1ccc(C#CCN2CCOCC2)cc1)CN1CCOCC1	-0.3%	-8.2	-2.1%	0.4%	3.0	-11.0%	-3.9
CCN1C(=O)[C@@H]2C(C(=O)c3cnccn3)=NN[C@@H]2C1=O	?	-2.2	/	-14.7%	/	6.1%	-10.9
C[C@@H](N)C(=O)N[C@H]1CCC2C3CC=C4C[C@@H](O)CC[C@]4(C)C3CC[C@@]21C (stereo partly drawn)	12.4%	23.2	/	/	/	2.4%	/
CCn1c(NC(=O)C(C)C)c(-c2ccccc2)c(=O)c2ccccc21	-3.1%	2.9	-11.0%	2.5%	-0.3	10.5%	16.9
Cc1cccc(OCC(=O)N2CCN(C(=O)c3cccs3)CC2)c1	?	12.5	1.8%	6.4%	2.6	-6.6%	-13.0
Cc1ccc(NC(=O)Cc2ccc(Cl)cc2)cc1S(=O)(=O)N1CCCCCC1	2.3%	-7.6	-4.6%	/	/	-28.2%	16.3
OCC[C@H]1C[C@@H](O)[C@H](O)[C@@]2(Cc3ccccc3CCO2)O1	-9.6%	2.4	1.7%	/	/	10.0%	-10.0
CC(=O)Nc1ccccc1OCC(=O)NCC(F)(F)F	?	37.1	-1.2%	3.2%	-1.0	-1.2%	9.0
COc1ccc(CC2(CO)CCN(S(=O)(=O)c3c(C)nn(C)c3C)CC2)cc1	-1.9%[15.4 µM]	10.1	-0.5%	-1.6%	-0.2	8.4%	7.1

3 of the compounds above, comma-delimited.
Compound,gsp ag,TRPML1 blocker,ClpP mod,Sfp inh,Menin MLL FP FL,gsp antag,TRPV1 PAM
NS(=O)(=O)c1ccc(CCNC(=O)CSc2nc3ccccc3c(=O)n2CC2CCCO2)cc1 (stereo not drawn),1.5%,-13.3,-1.4%,12.3%,/,0.8%,7.0
Cc1nnsc1C(=O)NC1CCCc2c1cnn2-c1ccccc1F (stereo not drawn),-74.8%[inhibitor],26.9,-15.4%,20.2%,/,-7.4%,-17.2
CCN1CCN(c2ccc(S(=O)(=O)N3CCOCC3)cc2NC(=O)/C=C/c2ccc(C)cc2)CC1,-1.2%,-1.2,-0.7%,/,/,-2.0%,8.4
